UCH37 DUB inh: blocks the human deubiquitinase UCH37; purified proteasome/UCH37, Ub-AMC cleavage fluorescence; inhibition, % (concentration not given with the values); hit rate 0.33% among 330,000; AID 588478;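 active = mean of two replicates above 20%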;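 also: 0% = compound-free wells with enzyme and 100% = wells lacking proteasome; stock transfer was 100 nL into about 20 µL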
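Test system – human UCH37 enzyme supplied as purified proteasome complex · Incubation – 30 min preincubation with enzyme, 25 min cleavage at room temperature · Detection – AMC fluorescence from Ub-AMC cleavage, excitation 355 nm, emission 460 nm · Benchmarks – no-proteasome wells (full inhibition) and compound-free wells (no inhibition)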
ALR H2O2 inh: inhibitors of human sulfhydryl oxidase ALR. P55789. purified ALR, DTT oxidation, H2O2 HRP-luminol luminescence. inhibition, % (test concentration not listed). hit rate 3.8% among 290,000. AID 485317;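 active = mean and each replicate at 75% or more; inconclusive = only one of the two met; inactive = neither met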;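 also: stock transfer was 7.5 nL into about 7.5 µL; 0% = neutral wells and 100% = wells with inactivated enzyme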
Target sequence (P55789 whole entry, looked up): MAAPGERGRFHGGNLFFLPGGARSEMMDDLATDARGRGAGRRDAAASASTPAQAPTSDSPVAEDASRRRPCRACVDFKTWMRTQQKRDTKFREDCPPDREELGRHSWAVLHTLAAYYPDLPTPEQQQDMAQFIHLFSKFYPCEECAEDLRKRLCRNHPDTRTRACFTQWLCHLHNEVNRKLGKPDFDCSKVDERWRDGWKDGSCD
FGF22 binding: shifts melting point of recombinant human FGF22. Q9HCT0. recombinant FGF22 thermal shift, SYPRO orange fluorescence; percent of sucrose octasulfate shift, DMSO zero. calls only at 9.99 µM. hit rate 1.5% among 340,000. AID 651658;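 active = melting point raised past a set limit in the mean and every replicate; inconclusive = no clear call; three in four hits are not shown here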
Target sequence (Q9HCT0 whole entry, looked up): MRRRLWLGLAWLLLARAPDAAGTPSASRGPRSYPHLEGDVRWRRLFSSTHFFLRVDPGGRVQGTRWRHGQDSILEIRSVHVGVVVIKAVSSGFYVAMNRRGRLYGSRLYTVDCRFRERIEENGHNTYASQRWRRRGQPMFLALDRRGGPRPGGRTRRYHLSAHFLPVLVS
LANA-H2B inh: blocks KSHV LANA binding to histone H2A/H2B; hit rate 0.6% among 320,000; cell-free LANA-H2A/H2B peptide, fluorescence polarization; inhibition, % (concentration not given with the values); Q9QR71; in the data active = inhibition mostly above about 10%, no sharp cut-off; inactive = mostly below about 6.7%;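 also: stock transfer was 7.5 nL into about 10 µL; 0% = median of vehicle wells and 100% = median of positive control wells; one replicate is shown; the record names a cut of 25% in any replicate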
E coli growth: E. coli growth inhibition. Escherichia coli growth, OD600, 23 h; stronger effect = lower value. OD600 absorbance (test concentration not listed). hit rate 0.21% among 330,000. AID 1053175;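 active = OD600 absorbance below the run mean of sample wells minus 3.6 SD, in any replicate, cut at about 0.56 in these data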;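 also: stock transfer was 300 nL into about 60 µL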
HNF4A DNA FP: change in binding of human HNF4 alpha to DNA; HNF4a-FITC DNA binding, fluorescence polarization, 1 h; activity change, % at 10 µM; hit rate 0.3% among 360,000; AID 1224865; in the data active = activity change above about 30%, passing the limit was not always enough;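 also: controls were the assay level and a saturating level of protein; the project sought stronger binding though the title names inhibitors; some compounds called inactive have numbers as strong as hits; positive values seem to mean higher polarization but the record does not say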
Target sequence (P41235 whole entry, looked up): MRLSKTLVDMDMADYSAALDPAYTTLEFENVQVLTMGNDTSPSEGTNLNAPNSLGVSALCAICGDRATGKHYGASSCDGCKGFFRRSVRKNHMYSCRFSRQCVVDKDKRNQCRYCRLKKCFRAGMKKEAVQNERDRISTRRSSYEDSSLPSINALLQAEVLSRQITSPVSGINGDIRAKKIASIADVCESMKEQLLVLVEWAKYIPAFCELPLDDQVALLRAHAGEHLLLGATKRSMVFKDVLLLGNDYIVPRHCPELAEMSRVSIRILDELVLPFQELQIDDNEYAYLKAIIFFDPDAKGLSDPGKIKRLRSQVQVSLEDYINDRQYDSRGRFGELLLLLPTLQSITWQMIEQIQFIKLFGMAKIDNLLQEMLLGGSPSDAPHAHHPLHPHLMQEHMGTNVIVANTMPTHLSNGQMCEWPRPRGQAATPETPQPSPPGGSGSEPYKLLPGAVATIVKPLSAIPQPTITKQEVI
Beta2AR agonist: activates human beta-2 adrenergic receptor causing internalization. P07550. Am2.2-beta2AR cells, FAP receptor internalization, flow cytometry; reference of the scale not given here. response, % (no concentration beside the values). hit rate 0.43% among 340,000. AID 504454;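 active = response above a set limit, near 3 SD of response in nonfluorescent compounds, cut at about 42% in these data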;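 also: stock transfer was 100 nL into about 11 µL; a reference agonist was the positive control; negative values mostly stem from fluorescent compounds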
* marks the source's active call; other numbers are inactive results; i = inactive; u = inconclusive; x = not tested or not shown. Only part of the results is shown; the hit share may differ from the screen's.

SMILES	UCH37 DUB inh	ALR H2O2 inh	FGF22 binding	LANA-H2B inh	E coli growth	HNF4A DNA FP	Beta2AR agonist
O=C(CSc1nc2ccc(NC(=O)CSc3nnnn3-c3ccccc3)cc2s1)Nc1ccccc1	-0.5	-2	x	2.9	0.71	4.8	-8
CN1/C(=C\C(=O)COc2ccc3c(c2)OCO3)C(C)(C)c2ccccc21	-4.5	-18	x	1.7	0.7	16	-15
Cc1cc(C(=O)NP(=O)(N2CCOCC2)N2CCOCC2)c(C)n1-c1ccc(N(C)C)cc1	4.9	93*	i	-3.2	0.72	1.9	-2
Cc1ccc(S(C)(=O)=O)cc1C(=O)NC(C)C1CC2CCC1C2 (centres undefined)	5.3	-4	i	7.1	0.67	0.2	-8
Cc1ccc(N2CCN(C3=NC(=O)/C(=C\c4cccs4)S3)CC2)cc1	8.1	-1	x	3.3	0.68	0.9	0
COc1ccc(C(=O)NCc2ccc3c(c2)OCO3)cc1S(=O)(=O)NCc1ccc(Cl)cc1	0.1	-3	x	-1.7	0.66	-1.1	6
COc1ccc(C(=O)NN(c2ccccc2)c2ccccc2)cc1	5.0	-11	x	1.9	0.71	4.7	14
CCn1c(C)nc2cc(C(=O)NNC(=O)Nc3ccc(Cl)c(Cl)c3)ccc21	2.3	-3	i	-2.0	0.71	x	x
Cc1ccc(NC(=O)Cn2cnc([N+](=O)[O-])c2)cc1C	x	-1	i	-2.5	x	3.5	-8
COCCNC(=O)COC(=O)c1[nH]c(C)c(C(C)=O)c1C	1.3	0	x	0.1	0.73	0.1	-2
Cc1nn(C)cc1CN(C)C(=O)c1cc(-c2ccccc2)nc2ccc(Br)cc12	x	10	i	4.3	x	5.0	8
NC(=O)c1ccccc1OC1CCC1	5.7	x	i	5.8	0.65	0.8	4
CCNS(=O)(=O)c1ccc(CCC(=O)NCCC2=CCCCC2)cc1	10	-26	i	9.5	0.67	-2.8	-1
O=C(CN1CCN(Cc2ccccc2Cl)C1=O)NC1CCCCCC1	1.3	-15	x	-4.1	0.78	-1.8	-7
CC(C)(O)CC[C@@H](O)[C@](C)(O)[C@H]1CC[C@@]2(O)C3=CC(=O)[C@@H]4C[C@@H](O)[C@@H](O)C[C@]4(C)[C@H]3CC[C@]12C	4.1	3	i	-6.2	x	0.7	3
Cc1ccn2c(=O)c(C(=O)NCCC3=CCCCC3)c(O)nc2c1	-5.1	-10	i	-6.2	0.71	5.2	6
Cc1cc(C)n(C(=O)CN2C(=O)CCC2=O)n1	1.8	16	x	4.5	0.77	2.7	2
S=C(NCCc1ccccc1)N/N=C/c1ccccc1Cl	x	6	i	-0.2	x	1.1	0
O=C1CCC/C=C\C[C@@H](CC(=O)N(CCO)Cc2ccccc2)C(=O)N[C@H](c2ccccc2)CO1	3.5	1	i	6.3	x	-1.2	2
Cc1ccc(C2CC(=O)Nc3c2ccc2ccccc32)cc1[N+](=O)[O-] (centres undefined)	5.0	-5	x	0.7	x	-2.5	-27

Entries listed so far that contain a Cl atom, in the order listed:
SMILES	UCH37 DUB inh	ALR H2O2 inh	FGF22 binding	LANA-H2B inh	E coli growth	HNF4A DNA FP	Beta2AR agonist
COc1ccc(C(=O)NCc2ccc3c(c2)OCO3)cc1S(=O)(=O)NCc1ccc(Cl)cc1	0.1	-3	x	-1.7	0.66	-1.1	6
CCn1c(C)nc2cc(C(=O)NNC(=O)Nc3ccc(Cl)c(Cl)c3)ccc21	2.3	-3	i	-2.0	0.71	x	x
O=C(CN1CCN(Cc2ccccc2Cl)C1=O)NC1CCCCCC1	1.3	-15	x	-4.1	0.78	-1.8	-7
S=C(NCCc1ccccc1)N/N=C/c1ccccc1Cl	x	6	i	-0.2	x	1.1	0

(next part)
SMILES	UCH37 DUB inh	ALR H2O2 inh	FGF22 binding	LANA-H2B inh	E coli growth	HNF4A DNA FP	Beta2AR agonist
CCCCCn1c(CN(C)Cc2ccccc2)nc2c1c(=O)n(C)c(=O)n2C	1.5	x	x	x	0.7	1.3	-9
Nc1ccccc1C(=O)NCCCN1CCOCC1	-117	-10	i	-2.8	0.7	2.0	-1
COC(=O)CSc1nc(C)c(C(=O)Nc2ccccc2C)c(-c2ccc(Cl)cc2)c1C#N	-7.0	0	x	-1.3	0.7	5.8	18
Cc1cc([N+](=O)[O-])ccc1NC(=O)C(C)[n+]1ccccc1 (centres undefined)	2.3	-13	x	6.6	0.66	5.7	-8
CCCNC(=O)CS(=O)Cc1nc(-c2ccc(OC)cc2)oc1C (centres undefined)	1.2	99*	i	1.3	0.77	0.5	-51
COCCNC(=O)/C(C#N)=C/c1cc(Br)c(O)c(OC)c1	x	83*	i	i	x	1.6	3
COC(=O)c1cc(S(=O)(=O)N2CCN(c3cc(C)ccc3C)CC2)c[nH]1	4.2	-14	i	-14	0.7	0.6	3
COc1ccc(/C=C/CN2CCN(Cc3ccc(F)cc3)C(CCO)C2)cc1 (centres undefined)	2.5	x	i	4.0	0.67	6.3	0
COc1cc(/C=C2\SC(=O)N(Cc3ccc(Cl)cc3)C2=O)cc([N+](=O)[O-])c1O	22*	x	x	x	0.74	-12	25
CC(C)Cn1c(SCC(=O)NC2CCCc3ccccc32)nc(O)cc1=O (centres undefined)	2.7	13	x	-0.6	0.74	-3.1	-5
COc1cccc(C(CC(=O)NCCN2CCOCC2)NS(=O)(=O)c2ccc(C)cc2)c1OC (centres undefined)	1.2	x	x	x	0.73	-1.4	3
COc1ccc(C2CC(c3ccccc3)Nc3nc(N)nn32)cc1 (centres undefined)	1.6	-19	x	6.7	0.68	3.4	-4
COc1ccc(C2CC(c3cccc(C)c3)n3ncnc3N2)cc1 (centres undefined)	1.9	-9	i	2.9	0.76	-0.5	-6
CCc1ccccc1NC(=O)c1ccc(S(=O)(=O)NCC2CCCO2)cc1 (centres undefined)	4.3	44	i	1.1	0.67	-2.5	7
CC(CCc1ccccc1)NC(=O)C(=O)NCc1ccccc1 (centres undefined)	-1.1	0	x	-0.5	0.66	-1.6	-9
CCC(C)[C@H](NC(=O)OC(C)(C)C)C(=O)N/N=C/c1ccc2nccnc2c1 (some centres undefined)	x	-22	x	0.3	x	0.5	-6
Cc1cnc(C(=O)Oc2ccc(-c3ccccc3)cc2)cn1	2.1	17	i	-1.2	0.68	-2.6	7
CC(C)n1nccc1N(Cc1ccc(Br)cc1)S(=O)(=O)c1ccccc1	-0.1	x	i	4.9	0.67	-2.4	4
Cc1cc(OCC(=O)NCc2nc(-c3ccccc3)no2)c(C)cc1Br	5.2	-19	x	-7.6	0.7	0.2	-5
CCOC(=O)CSc1nnc(-c2ccoc2C)n1-c1ccc(OCC)cc1	1.5	37	x	-0.1	0.72	2.4	-8
O=C(NC1CCCC1)c1cc(Cl)ccc1[N+](=O)[O-]	4.6	-19	i	1.4	0.67	1.2	0
CC(O)CCC(=O)NCCNC(=O)CCC(C)O (centres undefined)	1.8	-1	x	2.8	0.67	-1.5	0
Oc1cccc(/C=N/N2CCCCC2)c1O	x	99*	i	-2.6	x	1.6	2
O=C(CN1C(=O)NC2(CCCc3ccccc32)C1=O)Nc1cc(F)ccc1F (centres undefined)	1.8	x	i	-2.9	0.66	3.3	17
Cc1cc(N/N=C/c2cccc(F)c2)nc(NCc2ccccc2)n1	x	9	i	-4.4	x	2.9	2
Cc1nc(NC(=O)C2CCCC2)sc1Cc1ccc2c(c1)OCO2	0.5	-2	x	1.3	0.66	-1.2	-11
Cc1ccc2c(c1)N(CC(=O)N1CCCc3ccccc31)C(=O)CO2	2.5	x	i	1.4	0.65	-3.7	-3
Cc1c(NC(=O)Nc2ccc(C#N)cc2)c(=O)n(-c2ccccc2)n1C	0.7	20	i	0.5	0.62	2.2	-4
O=C1c2oc3ccc(F)cc3c(=O)c2C(c2ccc(F)cc2)N1CCCN1CCOCC1 (centres undefined)	5.4	x	i	2.1	0.76	-1.8	0
COc1cc(C(=O)NCC(=O)OCC(=O)N2CCc3ccccc32)cc(OC)c1OC	3.4	0	i	3.4	0.71	0.1	3
COc1ccc(OCC(=O)Nc2ccc3c(c2)nc(CCn2ccccc2=O)n3C)cc1	3.2	-3	i	-2.9	0.7	-0.8	-4
CC(C)C(NS(=O)(=O)c1cccs1)C(=O)N1CCC(C(N)=O)CC1 (centres undefined)	-1.8	1	i	2.0	0.66	2.1	-8
CCC/C(=N\NC(=O)c1csc(C)c1C)c1cccs1	x	18	x	-1.1	x	-2.1	4
CN(C)CCNc1nc2c(c(=O)[nH]c(=O)n2C)n1CC(O)COc1ccc(Cl)cc1Cl (centres undefined)	0.0	8	x	-3.9	0.73	-2.5	-16
O=C(Nc1ccc(N2CCCCC2)c(C(=O)O)c1)c1ccco1	2.7	0	x	-1.3	0.74	0.2	-9
CSc1ncccc1C(=O)OCn1nnc2ccccc2c1=O	5.4	-6	x	-0.1	0.74	3.0	2
COc1ccc(CN2CCC(Oc3ccc(C(=O)N4CCCC4)cc3)CC2)c(F)c1	-0.2	1	i	-1.0	0.68	-0.5	26
CCOc1cc(/C=C/c2cc(C(=O)O)c3ccccc3n2)ccc1O	4.0	89*	x	-0.5	0.73	-1.3	1
N#CC(OC(=O)c1ccccc1)c1ccccc1 (centres undefined)	x	x	i	x	x	3.0	-13
COc1cc(CCC(=O)Nc2ccc(S(=O)(=O)NC3=NCCCCC3)cc2)cc(OC)c1OC	-1.6	-11	i	0.7	0.67	-5.7	2
Cc1cc2c(cc1S(=O)(=O)N1CCN(c3cccc(C)c3C)CC1)OCCN2C	2.0	-5	i	-1.2	0.69	0.9	5
COc1ccc2c(c1)nc(NCCCO)n2Cc1ccccc1	1.2	46	i	1.3	0.68	-0.9	1
CNc1c(NS(=O)(=O)c2ccc(F)cc2)c(=O)oc2ccccc12	5.6	6	i	-0.4	0.71	-0.2	-21
Cc1cc(C(=O)CSc2ccc3c(c2)OCCO3)c(C)n1C1CC1	2.8	48	i	3.4	0.6	0.6	-1
COc1ccccc1CNC(=O)COC(=O)c1cccs1	1.8	20	i	-6.5	0.69	-2.5	-4
CCN(CC(=O)Nc1c(F)cccc1F)C(=O)c1csc2c1CCCC2	1.5	-7	i	7.1	0.69	4.0	2
CCOc1cccc2c1OC1(C)CC2NC(=O)N1Cc1ccccc1 (centres undefined)	3.5	x	i	x	0.68	0.7	3
Cc1cccc(C)c1NC(=O)c1sc(Cl)nc1C	2.9	1	i	-0.2	0.7	5.0	-4
C=CC(=O)Nc1sc2c(c1C(N)=O)CCCC2	-0.7	u	i	0.4	0.66	3.6	1
CN(C)C(=O)CSc1nnc(-c2cccs2)n1-c1ccccc1	1.2	-5	i	-3.5	0.69	1.1	-8
(further entries)
SMILES	UCH37 DUB inh	ALR H2O2 inh	FGF22 binding	LANA-H2B inh	E coli growth	HNF4A DNA FP	Beta2AR agonist
CCCCN(C)CCNC(=O)C1CCN(S(=O)(=O)c2cccc3nsnc23)CC1	4.8	-5	i	-0.4	0.71	1.5	-2
Cc1cc(S(=O)(=O)NCCCn2ccnc2)c(C)cc1Cl	0.1	-11	i	0.3	0.65	1.4	-10
O=C(CSc1nnc(CNC(=O)c2ccco2)o1)NC1CCCC1	3.9	-3	x	-5.7	0.75	-2.5	0
CCCc1[nH]n(-c2ccc([N+](=O)[O-])cc2)c(=O)c1C=NCCCn1ccnc1	6.7	17	i	-2.7	0.7	3.7	-18
COc1ccc(N(C(=O)c2ccco2)C(C(=O)NC2CCCC2)c2ccc(N(C)C)cc2)cc1 (centres undefined)	-1.5	6	x	-0.7	0.69	-0.8	-3
O=C(Cn1ncc2c3ccccc3n(Cc3ccccc3)c2c1=O)NCCCN1CCCC1=O	-11	0	i	-3.6	0.62	2.6	-12
Cc1ccnc(NS(=O)(=O)c2ccc(NC(=O)Cc3ccccc3)cc2)n1	-1.1	-4	x	2.2	0.68	-4.8	8
O=C(COc1ccccc1)Nc1ccccc1F	0.7	2	i	5.3	0.62	1.7	-5
CN(C)c1ccc(C(=S)N2CCOCC2)cc1	7.6	99*	x	-2.2	0.66	-4.6	0
S=C(Nc1ccccc1Cl)N1CCCC(c2ccccc2)=N1	x	-15	i	-1.2	x	1.2	-3

High-throughput results (PubChem)
